Sa RN4220 lethal = S. aureus RN4220 growth inhibition; actives 0.33% (n = 330,000); inhibition, % (no concentration beside the values); OD600, 16 h;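 active means z-score of -3 or lower and OD600 up to 0.18 on both plates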;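 further: plate controls were untreated cells for no effect and reference antibiotic for full effect; stock transfer was 100 nL into about 80 µL; one replicate is shown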
PrP 5UTR inh = inhibition of PrP 5' UTR reporter expression; actives 0.35% (n = 340,000); cell-based PrP 5' UTR mRNA reporter, plate reader; inhibition, % (concentration not given with the values); AID 488862;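 active means every replicate at 50% or more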;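 further: 0 = median of the neutral control wells; tested in H4 reporter cells; numbers are from one replicate; inactives centre near -14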
ugtP null kill = growth inhibition of S. aureus ugtP deletion strain. S. aureus RN4220 ugtP deletion, OD600 growth, 16 h; some inactives read as strong as hits. actives 0.54% (n = 330,000). growth inhibition, % (test concentration not listed);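 active means z-score under -3 and OD600 up to 0.15 on both plates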;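 further: plate controls were untreated wells for no effect and antibiotic for full effect; wells of about 80 µL received 100 nL stock; the first replicate is given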
Mtb hypoxia inh = Mtb hypoxia fluorescent reporter inhibition. M. tuberculosis hypoxia-regulated fluorescent reporter, fluorescence. fluorescence inhibition, % (test concentration not listed). actives 0.1% (n = 300,000);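 active means 35 to 45% if threefold the growth effect, above 45% if 1.5-fold the growth effect; inactive means the rest, general growth blockers included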;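 further: wells of about 50 µL received 100 nL stock; 0% = vehicle wells and 100% = reference inhibitor wells; whole bacteria with a GFP reporter of the hypoxia response; strong numbers were not always called active; many hits fall short of the cut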
Bead autofluor = compound fluorescence in toxin protease inhibitor counterscreen; compound autofluorescence counterscreen, microsphere flow cytometry; active compounds read high; fluorescence intensity (concentration not given with the values); actives 3.1% (n = 360,000); AID 624483;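 active means at least 3 SD above the mean of all compounds, about 16000 in these data; inconclusive means too few beads counted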;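 further: 100 nL of 1 mM stock went into each well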
BJeLR viability = BJeLR cell viability loss; BJeLR (HRASV12) viability, CellTiter-Glo ATP luminescence, 48 h; reference of the scale not given here; inhibition, % (concentration not given with the values); actives 0.17% (n = 300,000); AID 1554;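 active means replicate mean above 50%; inconclusive means above 50% but judged a plate artefact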;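 further: 50 nL library stock added to about 25 µL; numbers are from one replicate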
Mtb hypoxia inh growth = recorded beside Mtb hypoxia inh, whose call it bears; growth inhibition, %; measured here: M. tuberculosis growth (absorbance);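 0% = vehicle and 100% = reference antibiotic; read after six days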
The depositor's hits bear a star; u = inconclusive; x = no result given.

SMILES	Sa RN4220 lethal	PrP 5UTR inh	ugtP null kill	Mtb hypoxia inh	Mtb hypoxia inh growth	Bead autofluor	BJeLR viability
CC(C)c1ccc(C(=O)NNC(=O)C2CC=CCC2C(=O)O)cc1 (configuration not stated)	-1.5	-11	0	-10	-2	2437	-5
O=C1CCC(O)CCN1CCC(Sc1ccccc1)c1ccccc1 (configuration not stated)	11	x	14	5	13	x	x
COc1ccccc1NC(=O)C1CCCN1S(=O)(=O)c1ccc(Cl)cc1 (configuration not stated)	3.3	-8	4	12	0	4363	0
Cc1cc(C)n(-c2ccc(C(=O)Nc3ccc(C)c(S(=O)(=O)N4CCOCC4)c3)cc2)n1	0.0	-18	15	-3	1	6176	5
CCOc1ccc(C(=S)N2CCCC2)cc1	7.2	-11	-8	9	9	4382	5
COc1ccc(Nc2cc(C(=O)NCCCN3CCOCC3)c3ccccc3n2)c(OC)c1	2.3	-10	-3	-2	7	3571	-1
CC1(C)Cc2c(c(N3CCOCC3)nc3snc(NC(=O)c4ccccc4)c23)CO1	5.0	-14	0	9	10	u	2
CCCN(C(=S)Nc1ccccc1)C1CCS(=O)(=O)C1 (configuration not stated)	1.9	-25	2	9	13	3407	-2
O=C(COC(=O)CCSc1ccc(F)cc1)NCc1ccc(F)cc1	-3.3	-9	-6	2	3	2863	x
CCc1cc2c(NC(Cc3ccccc3)C(=O)O)ncnc2s1 (configuration not stated)	4.2	-19	0	1	3	4242	3
O=C(O)c1cc(NCc2ccc(F)cc2)ccc1N1CCOCC1	2.9	-6	4	14	4	3387	-1
c1cc2nncn2nc1N1CCCC1	-0.9	-10	5	x	x	2678	-6
COc1ccc(S(=O)(=O)NCc2cc(=O)n(C)c(=O)n2C)cc1C	1.9	-19	6	5	7	5325	-2
COc1ccc(-c2[nH]ncc2CN(C)CCc2c(C)n[nH]c2C)c(F)c1	2.3	-11	-1	0	1	2096	-4
Cc1ccc(S(=O)(=O)NNC(=O)CC#N)cc1	3.5	-7	-2	8	10	2829	1
NS(=O)(=O)c1cccc(NC(=O)COC(=O)Cc2ccc(S(=O)(=O)N3CCOCC3)s2)c1	4.3	10	0	9	2	x	x
Nc1ccc2c(c1)CC(=O)c1ccccc1S2	-2.6	8	1	-8	-14	10527	8
CCC(=O)N1CCc2cc(S(=O)(=O)CCC(=O)NC(C)CC)ccc21 (configuration not stated)	3.3	-18	5	5	-4	3410	-1
O=C(Nc1ccccn1)C(F)(F)C(F)(F)C(F)(F)C(F)(F)C(=O)Nc1ccccn1	-0.9	-29	4	4	-7	9631	-3
CC(Oc1ccccc1)c1ccnc2nc(/N=C/N(C)C)nn12 (configuration not stated)	x	1	x	x	x	21790*	9
CCOC1OC2C(CO)OC(n3cnc4c(N)ncnc43)C2O1 (configuration not stated)	0.0	-59	10	4	7	5134	6
NC(=O)CS(=O)(=O)c1ccc(Cl)cc1	6.7	-14	5	8	6	4757	-5
CC1CC(C(F)(F)F)n2ncc(C(=O)O)c2N1 (configuration not stated)	-2.4	-5	4	x	x	6226	-2
O=C(OCC(=O)N1CCN(S(=O)(=O)c2ccc(Cl)cc2)CC1)c1cc(Br)ccc1O	0.6	-12	0	-8	-9	u	0
CCCOc1ccc([C@@H]2C3CN(C(=O)OCC)CC=C3C(C#N)=C(N)C2(C#N)C#N)cc1OC (some centres not stated)	1.6	1	4	1	11	10527	-4
O=C(CN1CCN(CN2C(=O)NC3(CCCCCC3)C2=O)CC1)Nc1cccc(F)c1	0.8	-3	2	17	38	3691	x
CCOCCCNC(=O)c1cn(C)c2ccc(S(=O)(=O)N3CCCC3)cc2c1=O	2.0	0	4	-2	8	5433	2
COc1ccc(N2CCN(S(=O)(=O)CCNC(=O)C34CC5CC(CC(C5)C3)C4)CC2)cc1	-0.4	0	3	9	9	6291	-1
C1=CC(c2cc3ccccc3o2)OC(CCc2ccccc2)C1 (configuration not stated)	-1.6	-36	3	11	5	3736	3
Cc1cccc(NC(=O)C2CCCN2C(=O)Oc2ccccc2)c1 (configuration not stated)	4.3	-2	13	11	4	5606	-1
COc1ccc(OC)c(NC(=S)NN2CCN(C)CC2)c1	-0.2	-12	10	x	x	4860	-6
O=C(COc1ccccc1)Nc1cccc(-c2nnc(-c3ccccc3)o2)c1	3.5	-32	-4	x	x	2346	3
CCC(=O)c1cn([C@H](CCC(OC)OC)CC(=O)OC(C)(C)C)cc1CC	x	-24	x	x	x	3662	3
Cc1ccnc(NN=Cc2ccccc2)n1	5.8	x	13	12	-4	x	x
COc1ccc(-c2nnn(CC(=O)NCc3cccs3)n2)cc1OC	2.1	-30	-2	12	8	3556	-2
COCCNC(=O)c1ccc2ccccc2n1	0.4	-7	-1	11	1	3272	-4
CCc1ccccc1N(CC(=O)NC(C)(C)C)C(=O)CCC(=O)Nc1ccccn1	4.3	-10	8	-3	-2	3281	-1
CN1CCN(c2ccc(S(=O)(=O)N3CCCCC3)cc2NC(=O)/C=C/c2ccc(Cl)c([N+](=O)[O-])c2)CC1	-0.3	-5	7	5	3	6520	2
O=C(Nc1cccc(C(F)(F)F)c1)c1scc2c1OCCO2	6.9	-37	4	-5	10	3887	-11
COc1ccc2nc(SCc3ccccc3)nc(C)c2c1	7.8	-33	-3	-1	0	2315	-9

Continued; it opens with the 5 that closed the last part.
SMILES	Sa RN4220 lethal	PrP 5UTR inh	ugtP null kill	Mtb hypoxia inh	Mtb hypoxia inh growth	Bead autofluor	BJeLR viability
COCCNC(=O)c1ccc2ccccc2n1	0.4	-7	-1	11	1	3272	-4
CCc1ccccc1N(CC(=O)NC(C)(C)C)C(=O)CCC(=O)Nc1ccccn1	4.3	-10	8	-3	-2	3281	-1
CN1CCN(c2ccc(S(=O)(=O)N3CCCCC3)cc2NC(=O)/C=C/c2ccc(Cl)c([N+](=O)[O-])c2)CC1	-0.3	-5	7	5	3	6520	2
O=C(Nc1cccc(C(F)(F)F)c1)c1scc2c1OCCO2	6.9	-37	4	-5	10	3887	-11
COc1ccc2nc(SCc3ccccc3)nc(C)c2c1	7.8	-33	-3	-1	0	2315	-9
Cc1cnc(C(=O)OCC(=O)c2ccc(F)c(F)c2)cn1	1.1	-17	-3	4	-6	5705	1
O=C(Nc1cccnc1)c1cc(-c2cc(Cl)ccc2O)n[nH]1	1.9	-145	5	-3	-5	3742	5
Cc1ccc(-c2nc3ccccc3o2)cc1NC(=S)NC(=O)c1cccs1	17	-19	-22	x	x	3374	-2
Cc1cc(C)n(-c2nc(SCCN(C)C)c3c4c(sc3n2)COC(C)(C)C4)n1	-0.8	-11	7	13	14	8080	7
COc1ccc(S(=O)(=O)CC(=O)Nc2nnc(C(F)(F)F)s2)cc1	5.2	-28	12	12	26	5191	11
Cn1/c(=N/NC(=O)c2cccc(OC(F)F)c2)sc2ccccc21	x	25	x	x	x	2260	9
COc1ccccc1NC(=O)CSc1nnc2ccccn12	2.7	-29	7	7	6	7720	x
COc1ccc2[nH]c3c(c2c1)CCN1C(=O)C(CC(=O)NCCCN(C)C)C[C@H](C(=O)N2CCCCC2)[C@@]31CCc1ccccc1 (some centres not stated)	-6.1	-23	-3	-9	1	2968	x
O=C(COc1ccc(Cl)cc1Cl)NN1C(=O)/C(=C\c2ccc(Cl)cc2)SC1=S	28	-5	1	11	4	4639	1
COc1ccc(NC(=O)CN(C)C(=O)c2cn(-c3ccccc3)nc2-c2cccs2)cc1	-1.7	-75	4	-1	-3	x	-7
Cc1ccc(SCc2nc(-c3ccccc3)no2)cc1	3.2	-31	26	x	x	5391	-5
CCn1c(C(=O)O)c(CC(=O)N(C)c2ccc(OC)cc2OC)c2ccccc21	10.0	-20	-2	3	-15	3779	4
COc1ccc(OC)c(C2C(C(=O)c3cccs3)=C(O)C(=O)N2CCN(C)C)c1 (configuration not stated)	7.1	-18	9	10	1	6705	-22
Cc1c(C(=O)Nc2nnc(C(F)(F)F)s2)oc2ccccc12	70	-37	63	-7	-1	23455*	2
CCOC(=O)C1=C(C)N(CCCCCC(=O)O)C(=O)NC1c1ccc(Br)cc1 (configuration not stated)	3.2	-16	-1	5	1	3724	4
Cc1ccc(CNC(=O)C2c3ccccc3C(=O)N(C)C2c2c[nH]c3ccccc23)o1 (configuration not stated)	0.0	x	-3	x	x	x	1
CCCCn1nc2cc(C(=O)NCc3ccccc3OC)ccc2c1OCC	1.9	-21	7	8	6	2960	10
O=C(CNC(=O)c1ccccn1)NN=Cc1ccc2c(c1)OCO2	-0.3	x	0	1	1	x	x
CCn1c(=NC(=O)c2cccc(N3C(=O)CCC3=O)c2)sc2c(OC)ccc(OC)c21	23	-12	19	2	2	5761	-8
CCOc1ccccc1N(CC(=O)Nc1cccc2ccccc12)S(C)(=O)=O	6.6	-34	-2	-1	12	4034	-2
CCOC(=O)c1ccc(NS(=O)(=O)c2ccc(Cl)nc2)cc1	6.2	x	6	14	-5	x	-4
Cc1cccc(C=NNC(=O)CN2CCCCCCC2)c1	6.0	x	3	3	9	x	x
O=C(NN=Cc1ccccc1O)C1CCCC1	5.4	x	7	5	8	x	x
O=C(Nc1nc(-c2ccc(Cl)cc2)cs1)C1=COCCO1	-1.3	-70	31	12	0	3940	3
Cc1ccc(N2C(=O)CC(n3ccnc3)C2=O)cc1C (configuration not stated)	1.6	-11	8	11	16	3947	12
CC(C)c1nn2c(=O)cc(COc3cccc(NC(=O)c4ccco4)c3)nc2s1	4.4	-3	6	-3	11	5023	0
O=C(NC(=S)NCc1ccccc1)c1ccc(Br)cc1	-1.5	x	78	-3	4	6114	-5
O=C(CCC(=O)N1CCSc2ccccc21)NCc1ccccc1	-0.6	-12	-11	x	x	6010	-9
COc1ccc(CNC(=O)C(c2ccncc2)N(C(=O)Cc2cccs2)c2cccnc2)cc1 (configuration not stated)	2.5	-10	7	6	1	5395	-12
Cc1ccccc1Nc1nc(-c2cccnc2)nc2ccccc12	-5.7	-20	0	0	13	6174	6
COc1ccc2nc(/N=C(\N)NC(=O)N3c4ccccc4Sc4ccccc43)nc(C)c2c1	x	-28	x	x	x	10498	6
CCOC(=O)c1c(C)[nH]c(C)c1C(=O)COC(=O)c1cccnc1SC	5.6	3	8	10	2	3510	x
CCSc1nnc(NC(=O)CSc2nc3c(c(=O)n2C)SC(C)C3)s1 (configuration not stated)	4.6	16	-1	6	5	10876	-9
Cc1nn(-c2ccccc2)c2c1C1(C(=O)N3c4c(cccc41)C(C)CC3(C)C)C(C#N)=C(N)O2 (configuration not stated)	96*	-36	92*	16	2	22394*	-15
COc1ccc(S(=O)(=O)N2CCOCC2)cc1NC(=O)CN1C(=O)NC2(CCCC2)C1=O	2.8	-15	7	8	12	3657	x
CCCS(=O)(=O)c1c(S(=O)(=O)CCC)c2cc(CC)ccn2c1C(=O)OC	2.2	-17	7	0	6	3915	-11
CC(C)COc1cccc(C(=O)Nc2ccc(S(=O)(=O)N3CCOCC3)cc2)c1	0.5	-12	14	6	4	5134	-6
CC(=O)c1cccc(OCc2cc(C(=O)NC3CCN(Cc4ccccc4)CC3)no2)c1	1.3	-6	6	3	1	6512	-5
O=[N+]([O-])c1ccc2oc(C3CCCCC3)nc2c1	0.3	-30	4	-7	11	4266	-11
CN(Cc1ccc(Cl)s1)C(=O)CCl	7.9	2	7	x	x	4078	38
COc1cccc(NC(=O)[C@H](NC(=O)[C@@H]2Cc3ccccc3CN2)c2ccccc2)c1	3.2	-16	0	13	10	6812	0
Cc1cccn2c(=O)c3cc(C(=O)NCC(C)C)sc3nc12	0.0	-22	10	3	7	3632	-16
COC(=O)c1ccc(Oc2nc3c(c(=O)n(C)c(=O)n3C)n2CCC(C)C)cc1	2.0	-3	11	x	x	4792	-14
Cc1ccc(C(=O)N2CCN(C34CC5CC(CC(C5)C3)C4)CC2)o1	0.5	-11	1	3	-7	6273	-17
Cc1cccc2c(=O)cc(C(F)(F)F)[nH]c12	8.0	-16	-1	9	4	3232	-4
Cc1cc(C)c(NC(=O)CSc2nnnn2-c2cccnc2)c(C)c1	0.6	-11	0	1	-3	4186	-9
